PINK1 modulator: modulators of PINK1 expression; PINK1 immunofluorescence, high-content cytometry, 24 h; Potency, µM (top dose mostly 76.6 µM), for inactives: at the top dose activation (PINK1 increase), usual class: activators; 410,000 compounds, 0.2% hits; AID 624263; active = well fitted activation curve with a large enough effect; inconclusive = small, poorly fitted or top-dose-only effect; inactive = flat fitted curve, though single readings scatter; cell line not stated here;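 note: % of control where 0% means no effect; nearly all actives have a fitted effect of over 65% in size; a mitochondrial uncoupler was the plate control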
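Readout is PINK1 immunofluorescence, quantified alongside mitochondrial, cell and nuclear markers by laser-scanning microplate cytometry. Cells from a stable line were exposed to compound titrations (5 concentrations) for 24 hours, with CCCP controls.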
* = called active by the depositor. Potency is the fitted concentration of half-maximal effect. A portion of the library, so the mix of outcomes need not match the whole.

SMILES	PINK1 modulator
COc1cc(CNC(=O)c2ccc3nc(CCc4ccccc4)oc3c2)cc(OC)c1OC	0.1%
COc1cccc(CN2CCC(c3nnc(SCC4CCCO4)n3C)CC2)c1O (stereo unspecified)	-0.4%
Cn1ncc2c(Nc3cc(C(F)(F)F)ccc3Cl)ncnc21	3.4%
Nc1nonc1-c1nc2ccccc2n1CC(=O)Nc1cccc(Cl)c1Cl	5.9%
CCc1c(C)nc2nncn2c1Nc1ccc(C(C)C)cc1	-2.4%
COc1ccc(Cc2nc3c4cnn(-c5ccccc5Br)c4ncn3n2)cc1	-0.7%
COc1cc(Cl)c(C)cc1NC(=O)CCn1c(=O)c2cccn2c2cccnc21	-0.9%
Cc1ccc(-c2nc(N3CCN(c4ccccc4Cl)CC3)c3ccccc3n2)cc1	2.6%
COc1ccc(C(=O)N2CCN(C(=O)COc3ccccc3)CC2)cc1OC	0.8%
COC(=O)C1=C(CS(=O)(=O)c2cc(Cl)ccc2OC)NC(=O)NC1c1ccccc1 (stereo unspecified)	0.5%
CCCSc1oc(-c2ccco2)nc1S(=O)(=O)c1ccc(Cl)cc1	1.4%
O=C(NCCCc1nc2ccccc2n1Cc1ccccc1)C1CCCCC1	1.6%

Some of these compounds in order of their number in PINK1 modulator, smallest number first:
SMILES	PINK1 modulator
CCc1c(C)nc2nncn2c1Nc1ccc(C(C)C)cc1	-2.4%
COc1cccc(CN2CCC(c3nnc(SCC4CCCO4)n3C)CC2)c1O (stereo unspecified)	-0.4%
COC(=O)C1=C(CS(=O)(=O)c2cc(Cl)ccc2OC)NC(=O)NC1c1ccccc1 (stereo unspecified)	0.5%
COc1ccc(C(=O)N2CCN(C(=O)COc3ccccc3)CC2)cc1OC	0.8%
Cc1ccc(-c2nc(N3CCN(c4ccccc4Cl)CC3)c3ccccc3n2)cc1	2.6%
Cn1ncc2c(Nc3cc(C(F)(F)F)ccc3Cl)ncnc21	3.4%

New compounds follow
SMILES	PINK1 modulator
CCCc1cc(=O)[nH]c(SCc2nc(-c3ccc(C)cc3)no2)n1	4.3%
CCc1ccc(Nc2nc3ccccc3c3nnc(C)n23)cc1	2.7%
COc1cc(NC(=O)N2CCC(CN3CCc4ccccc4C3)CC2)cc(OC)c1	-0.3%
Cc1ccc2c(c1)c1c(c(=O)n(Cc3ccccc3)c(=O)n1CC(=O)Nc1ccccc1F)n2C	-0.2%
CCOC(=O)C1CCN(C(=O)c2ccc(C)c(NC(=O)c3nsc4ccccc34)c2)CC1	-0.7%
Cc1cccc(N2CCN(C(=O)C3CCN(C(=O)c4cc5sccc5n4C)CC3)CC2)c1C	-1.8%
O=S(=O)(c1ccc(F)cc1)N1CCN(c2nc(-c3ccc(F)cc3)nc3cc(Cl)ccc23)CC1	-0.6%
CC(=O)c1ccc[n+](C(C)CCC(C)[n+]2cccc(C(C)=O)c2)c1 (stereo unspecified)	0.2%
Cc1ccc(C)c(N2CCN(C(=O)Cc3c(C(=O)O)c(C)cn3C)CC2)c1	-1.7%
CCN(C(=O)CN1C(=O)c2ccccc2Sc2ccc(C(=O)OC)cc21)c1cccc(C)c1	0.1%
CCOc1ccccc1NC(=O)CN1C=NS(=O)(=O)c2ccccc21	0.9%
Cc1ccc(NC(=O)Cn2cc3c(n2)CCCCC3)cc1	0.6%
COc1cc(NC(=O)c2nn(C)c3c2COc2ccccc2-3)cc(OC)c1OC	5.6%
CCOc1cc(C(c2c(C)[nH]n(-c3ccccc3)c2=O)c2c(C)[nH]n(-c3ccccc3)c2=O)ccc1O	-1.9%
CC1=C(c2ccc(Cl)cc2)S(=O)(=O)N=C1N1CCN(c2cccc(C)c2C)CC1	-0.1%
CCCc1cc(=O)[nH]c(Nc2ccc(O)cc2C)n1	0.7%
CC(C)(C)c1ccc(C(=O)N2CCCC(c3nc4c(nnn4Cc4cccc(F)c4)c(=O)[nH]3)C2)cc1 (stereo unspecified)	-0.6%
CCOC(=O)CSc1nc2c(sc3ccccc32)c(=O)n1Cc1ccc(C)cc1	3.4%
Cc1nnsc1C(=O)Oc1ccc(C(C)C)cc1	-0.6%
COc1cc(-c2noc(-c3ccc(NCCc4ccccc4)c([N+](=O)[O-])c3)n2)cc(OC)c1OC	3.0%
COC(=O)c1scc(-c2ccc(C)cc2)c1S(=O)(=O)Nc1cc(OC)c(OC)c(OC)c1	-0.3%
COC(=O)c1cn([C@@H]2C[C@@H](C(=O)Nc3cccc(SC)c3)N(C3CCCCCC3)C2)nn1	0.6%
CCCCOc1ccc(C(=O)NCCS(=O)(=O)N2CCN(c3ccc(F)cc3)CC2)cc1	1.3%
Cc1ccc(C)c(Cn2c3ccccc3c3cnn(CC(=O)NCCc4ccccc4)c(=O)c32)c1	4.5%
CCOC(=O)c1ccc(NC(=O)C(CC)Sc2nc3ncccc3[nH]2)cc1 (stereo unspecified)	1.4%
COc1ccc(C)cc1NC(=O)c1nnn(-c2c(C)cccc2C)c1C	2.8%
CO[C@H]1[C@H](NC(=O)c2ccsc2)c2ccccc2C12CCN(Cc1cnn(C)c1C)CC2	-0.6%
CCOC(=O)CC(NC(=O)CCc1c(C)nc2cc(-c3ccccc3)nn2c1C)c1ccc(C)cc1 (stereo unspecified)	4.3%
CCc1ccc(-n2c(=O)c3cccnc3n2CC(=O)Nc2cc(F)ccc2F)cc1	1.5%
CCOC(=O)c1ccc(CN(Cc2ccccc2C)S(=O)(=O)c2ccc(F)c(C)c2)cc1	-2.0%
COc1ccc(CNC(=O)CCc2c(C)nc3nc(CNC(=O)OC(C)(C)C)nn3c2C)cc1	2.4%
CCCCN(CC)C(=O)Cn1c(=O)n(-c2ccc(OCC)cc2)c(=O)c2c3c(sc21)CCCC3	-0.4%
CCOc1ccc(CNC(=O)c2ccc(CS(=O)c3ccccc3)o2)cc1 (stereo unspecified)	1.7%
COc1ccc(C(=O)N(Cc2sccc2C)C2CCS(=O)(=O)C2)cc1Cl (stereo unspecified)	-0.6%
CC(C)c1ccc(NS(=O)(=O)c2cc(Br)cc3c2N(C(=O)C2CC2)CC3)cc1	0.9%
Cc1ccc2c(c1)C(=O)OC(C(=O)Nc1ncc(Cc3ccc(Cl)cc3)s1)C2 (stereo unspecified)	-0.1%

Overlap with the part before: 2 entries, then new ones.
SMILES	PINK1 modulator
CC(C)c1ccc(NS(=O)(=O)c2cc(Br)cc3c2N(C(=O)C2CC2)CC3)cc1	0.9%
Cc1ccc2c(c1)C(=O)OC(C(=O)Nc1ncc(Cc3ccc(Cl)cc3)s1)C2 (stereo unspecified)	-0.1%
O=C(NCC1(N2CCCCC2)CCCC1)c1cnn(-c2nccc(-c3cccs3)n2)c1C1CC1	-0.7%
Cc1nc2n(c(=O)c1CCN1CCC(c3noc4cc(F)ccc34)CC1)CCC[C@@H]2O	0.4%
COc1ccc(OC(C)C(=O)NCc2nc(-c3cccc(C)c3)no2)cc1 (stereo unspecified)	1.6%
COc1ccc(Cl)cc1C(=O)Nc1ccc2nc(Nc3cccc(Cl)c3)cc(C)c2c1	3.1%
Cc1nn(CCCC(=O)NCc2ccccc2Br)c(=O)c2c1sc1ccccc12	1.5%
Cc1ccc(NC(=O)CCc2c(C)nc3cc(-c4ccccc4)nn3c2C)cc1F	1.4%
CCOc1ccc(NC(=O)c2ccc(-c3ccccc3)s2)cc1	1.4%
Cc1cccc(N2CCN(C(=O)c3cc4c(=O)oc5ccccc5c4s3)CC2C)c1 (stereo unspecified)	2.1%
COc1ccc(N(CC(=O)Nc2ccc(Cl)cc2C)S(=O)(=O)c2ccccc2)c(OC)c1	10%
O=c1c2cnn(-c3ccc(Cl)cc3)c2ncn1Cc1cccc(C(F)(F)F)c1	-2.0%
Cc1c(-c2nc(-c3ccccc3)no2)nnn1-c1cccc(C(F)(F)F)c1	1.8%
O=C(NC1(C(F)(F)F)NC(=O)N(CCc2ccccc2)C1=O)c1ccccc1F (stereo unspecified)	3.0%
COC(=O)c1cc2sc(C)cc2n1CC(=O)Nc1ccc(C)c(C)c1	10%
CCCC(=O)Nc1cc2nn(-c3ccccc3)nc2cc1C	-0.5%
O=C(NCCc1ccccc1)c1ccc2nc(N3CCCCC3)sc2c1	3.4%
Cc1ccc(Cl)cc1NC(=O)Cn1c(SCC(=O)NCc2ccccc2)nc2ccccc21	3.8%
Cc1ccccc1CCNC(=O)c1ccc(Cn2c(=O)c3cccn3c3cccnc32)cc1	-0.1%
COc1ccc(CC(=O)NCCc2sc(-c3cccc(F)c3)nc2C)cc1	-0.2%
Cc1ccc(C(=O)Nc2ccc(NC(=O)c3cccs3)cc2)cc1C	1.7%
COCCCNC(=O)CSC1=Nc2ccccc2C2=NC(CCC(=O)NCc3ccc(OC)cc3)C(=O)N12 (stereo unspecified)	4.0%
O=C(CSc1nc2c([nH]c3ccccc32)c(=O)n1-c1ccccc1)N1CCc2ccccc21	5.9%
CC(=O)N1CCN(c2nc3cc(C)ccc3cc2CN(C(=O)c2cccc3ccccc23)C2CC2)CC1	-0.5%
COc1ccccc1CNC(=O)c1cc2cccc3c2n1CC(C)S3 (stereo unspecified)	1.5%
COc1cccc(C2=CC(c3ccccc3F)n3ncc(C(=O)Nc4ccc(F)cc4)c3N2)c1 (stereo unspecified)	9.7%

Taken from above.
In PINK1 modulator, COC(=O)c1cc2sc(C)cc2n1CC(=O)Nc1ccc(C)c(C)c1 has 10%
In PINK1 modulator, Cc1ccc(C(=O)Nc2ccc(NC(=O)c3cccs3)cc2)cc1C has 1.7%
In PINK1 modulator, O=C(NCCc1ccccc1)c1ccc2nc(N3CCCCC3)sc2c1 has 3.4%
In PINK1 modulator, COc1cccc(C2=CC(c3ccccc3F)n3ncc(C(=O)Nc4ccc(F)cc4)c3N2)c1 (stereo unspecified) has 9.7%

The results go on.
SMILES	PINK1 modulator
Cc1ccc(N2CC(NC(=O)c3cccc(Cl)c3)CC2=O)cc1C (stereo unspecified)	2.4%
Cc1ccc(C)c(N2CCN(C(=O)CN3C(=O)COc4ccc(S(=O)(=O)N5CCCCCC5)cc43)CC2)c1	2.7%
COc1ccc(NC(=O)Cn2nnc(C(=O)NCc3ccccc3Cl)c2N)cc1Cl	23%
O=C(NCCN1CCOCC1)c1cnn(-c2nccc(-c3cccs3)n2)c1C1CC1	1.9%
Cc1ccc(C)c(-n2nnc(-c3nc(-c4ccccc4C)no3)c2C)c1	3.5%
CCc1ccc(NC(=O)CSc2nc3n[nH]c(C)c3c(=N)n2-c2ccc(C)cc2)cc1	4.9%
Cc1cc(Cl)ccc1NC(=O)Cn1nnc2sc(-c3ccccc3)cc2c1=O	2.4%
COc1ccccc1NC(=O)CSC1=Nc2ccccc2C2=NC(Cc3ccccc3)C(=O)N12 (stereo unspecified)	0.7%
CC(C)Oc1ccc(CNC(=O)CCCn2c(=O)c3cccn3c3ccccc32)cc1	5.7%
COc1ccc(C2Nc3ccccc3C(=O)N2c2ccc(Cl)cc2)cc1COc1ccc(NC(C)=O)cc1 (stereo unspecified)	1.4%
CCCCCOc1ccc(/C=C/C(=O)Nc2sc3c(c2C(=O)OCC)CCC3)cc1OC	0.8%
COc1ccc(Cl)cc1NC(=O)c1c(NCc2cccnc2)sc2c1CCC(C)C2 (stereo unspecified)	9.6%
CC(=O)Nc1cccc(NC(=O)C2(c3cccs3)CCOCC2)c1	1.2%
O=C(NC1CC1)[C@@H]1C[C@@H](Sc2nc3ccccc3[nH]2)CN1CC1CCCCC1	1.3%
COC(=O)CSc1nc2sc3c(c2c(=O)n1-c1ccc(C)cc1)CC(C(C)C)OC3 (stereo unspecified)	-0.5%
Cc1ccc(N(CC(=O)N2CCN(c3cc(Cl)ccc3C)CC2)S(=O)(=O)c2c(C)noc2C)cc1	1.5%
Cc1[nH]c2ccccc2c1C(=O)C(=O)N(C)c1ccccc1	0.2%
COc1ccc(-c2noc(CCC(=O)Nc3cccc(C)c3C)n2)cc1OC	2.8%
Cc1ccc(NC(=O)CCSc2nc(-c3ccco3)cc(C(F)(F)F)n2)cc1F	5.5%
COc1ccc(-c2cn3nc(N4CCCC(C(=O)Nc5ccc(Cl)cc5C)C4)sc3n2)cc1 (stereo unspecified)	1.5%
Cc1ccc(NC(=O)[C@H](Cc2ccccc2)N2Cc3ccccc3C2=O)cc1	4.2%
O=C(Nc1cc2c(cc1C(=O)c1cccc(Br)c1)OCCO2)c1ccccc1F	2.9%
CCN(CC)CCNC(=O)c1ccc2c(c1)N(Cc1ccccc1)C(=O)c1ccccc1S2=O (stereo unspecified)	0.5%
CCOC(=O)C1CCC(CN(Cc2cccc(Br)c2)S(=O)(=O)c2ccc(Cl)cc2)CC1 (stereo unspecified)	1.1%
CC(C)N(C(=O)c1cc2c(Cl)nc3ccccc3c2s1)C1CCCCC1	0.5%
Cc1nn(C(C)C(=O)NC2CCC(C)CC2)c(=O)c2c1sc1ccccc12 (stereo unspecified)	1.0%
Cc1ccn2cc(CNC(=O)c3cccc(C(F)(F)F)c3)nc2c1	1.9%
CCOc1cc2ccccc2cc1C(=O)OCC(=O)Nc1ccc(Br)cc1	-0.4%
Cn1ncc2c(NCc3ccc(Cl)cc3)ncnc21	3.8%
COc1cc(NS(=O)(=O)c2ccc3c(c2)CCN3S(C)(=O)=O)cc(OC)c1	3.5%
COc1ccc(CN2C(=O)c3oc4ccc(F)cc4c(=O)c3C2c2ccc(O)cc2)cc1 (stereo unspecified)	0.1%
CCOc1ccc(CCNC(=O)Cn2c(C)c3cnn(-c4ccccc4)c(=O)c3c2C)cc1	-0.7%
CCOc1ccc(NC(=O)CN2CCN(c3ccc(Cl)cc3)CC2)cc1	0.3%
Cc1c(C(=O)NCC2CCCN(C)C2)cnn1-c1ncc2c(n1)-c1ccccc1CCC2 (stereo unspecified)	0.7%
CCn1c(CNC(=O)c2ccc(OC)cc2)nnc1SCC(=O)Nc1ccc(OC)cc1	0.5%
CCc1ccc(NC(=O)C(=O)NCC(c2cccnc2)N2CCOCC2)cc1 (stereo unspecified)	0.4%
N#Cc1cccc(NC(=O)CCNS(=O)(=O)c2ccc3c(c2)CCN3C(=O)C2CC2)c1	-1.9%
Cc1c(C(=O)NC(C)(C)CO)sc2ncnc(NCCN(C)C)c12	-0.8%

Screens: PubChem, National Center for Advancing Translational Sciences (NCATS)
